BJeLR viability = BJeLR cell viability loss; BJeLR (HRASV12) viability, CellTiter-Glo ATP luminescence, 48 h; reference of the scale not given here; inhibition, % (concentration not given with the values); 0.17% of 300,000 active; AID 1554;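 active = replicate mean above 50%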;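 also: 50 nL library stock added to about 25 µL; numbers are from one replicate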
ugtP null kill = growth inhibition of S. aureus ugtP deletion strain | S. aureus RN4220 ugtP deletion, OD600 growth, 16 h; some inactives read as strong as hits | growth inhibition, % (test concentration not listed) | 0.54% of 330,000 active | AID 1259309;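 active = z-score under -3 and OD600 up to 0.15 on both plates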;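 also: plate controls were untreated wells for no effect and antibiotic for full effect; wells of about 80 µL received 100 nL stock; the first replicate is given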
PrP 5UTR inh = suppresses PrP 5' UTR mRNA reporter expression | inhibition, % (no concentration beside the values) | cell-based PrP 5' UTR mRNA reporter, plate reader | AID 488862 | 0.35% of 340,000 active;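 active = every replicate at 50% or more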;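 also: 0 = median of the neutral control wells; tested in H4 reporter cells; numbers are from one replicate; inactives centre near -14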
Mtb hypoxia inh = inhibitors of hypoxia-regulated fluorescent reporter in Mycobacterium tuberculosis | M. tuberculosis hypoxia-regulated fluorescent reporter, fluorescence | 0.1% of 300,000 active | fluorescence inhibition, % (no concentration beside the values);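 active = 35 to 45% if threefold the growth effect, above 45% if 1.5-fold the growth effect; inactive = the rest, general growth blockers included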;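 also: wells of about 50 µL received 100 nL stock; 0% = vehicle wells and 100% = reference inhibitor wells; whole bacteria with a GFP reporter of the hypoxia response; strong numbers were not always called active; many hits fall short of the cut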
Autofluor counter = counter-screen for toxin protease inhibitors: compound fluorescence; fluorescence intensity (no concentration beside the values); 3.1% of 360,000 active; compound autofluorescence counterscreen, microsphere flow cytometry; active compounds read high;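 active = at least 3 SD above the mean of all compounds, about 16000 in these data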;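 also: 100 nL of 1 mM stock went into each well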
Sa RN4220 lethal = S. aureus RN4220 growth inhibition. OD600, 16 h. inhibition, % (concentration not given with the values). 0.33% of 330,000 active. AID 1259311;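 active = z-score of -3 or lower and OD600 up to 0.18 on both plates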;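 also: plate controls were untreated cells for no effect and reference antibiotic for full effect; stock transfer was 100 nL into about 80 µL; one replicate is shown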
Mtb hypoxia inh growth = second read-out of Mtb hypoxia inh, no call of its own (marks repeat the call); growth inhibition, %; measured here: M. tuberculosis growth (absorbance);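 0% = vehicle and 100% = reference antibiotic; read after six days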
* = called active by the depositor; x = not tested or not shown.

SMILES	BJeLR viability	ugtP null kill	PrP 5UTR inh	Mtb hypoxia inh	Mtb hypoxia inh growth	Autofluor counter	Sa RN4220 lethal
CC(=O)c1ccc(OCC(O)CN2CCc3ccccc3C2)cc1 (stereo not drawn)	1	12	-9	10	-2	3518	-1.5
C=CCn1c(SCC(=O)Nc2nnc(CC)s2)nnc1-c1cccnc1	-4	-1	-7	5	-2	2390	5.4
Cc1cc(C(=O)OCC(=O)N2CC(=O)Nc3ccccc32)c(C)n1-c1ccccc1	-1	-1	-10	10	8	2484	0.9
Cc1[nH]c2ccccc2c1C(=O)COC(=O)C1CC(=O)N(Cc2ccccc2)C1 (stereo not drawn)	0	-19	-13	8	15	3620	5.8
Cc1ccc(NC(=O)C(C)OC(=O)Cn2[nH]c(=O)c3ccccc3c2=O)cc1 (stereo not drawn)	3	5	-17	-4	3	x	-1.1
O=c1cc[nH]c2ccc([N+](=O)[O-])cc12	-11	6	-29	4	11	3818	7.1
CN(C)CCCN(C(=O)c1ccc(S(=O)(=O)N2CCc3ccccc3C2)cc1)c1nc2c(F)cccc2s1	3	-9	-3	7	14	5670	-8.0
COc1ccc(N2CCN(C(=O)c3oc4ccccc4c3NC(=O)Cc3ccc(OC)c(OC)c3)CC2)cc1	0	7	-10	2	-1	5399	4.7
CC1Sc2ccc(C(=O)Nc3ncccc3O)cc2NC1=O (stereo not drawn)	-7	4	-47	-10	0	x	3.6
COc1cccc2cc(C(=O)OC(C)C(=O)c3ccc(C)cc3)c(=O)oc12 (stereo not drawn)	-11	6	6	8	8	5648	6.9
CCCN1CCC(=O)N([C@H](CSc2ccc(C)cc2)c2ccccc2)CC1	1	x	-35	x	x	3707	x
Cc1[nH]c(=O)c(C#N)c(C)c1Br	-5	4	-5	10	5	6992	2.4
N#CCCN1CCN(Cn2c3ccccc3c3ccccc32)CC1	-6	-3	-18	7	2	2957	-10.0
COc1cc(OC)c(C2N(c3ccc(Cl)c(Cl)c3)C(=O)C3CCCN32)cc1OC (stereo not drawn)	-14	0	-13	12	8	9906	6.6
Cc1ccc(C)c(S(=O)(=O)N2CCN(C(=O)C3CCN(c4ncnc5sc(C)c(C)c45)CC3)CC2)c1	3	4	-7	-10	-2	x	1.1
CC(Sc1nc2c(cc1C#N)CCCCC2)C(=O)O (stereo not drawn)	7	4	x	11	-1	x	4.9
CN1CCN(/N=C/c2c(O)n(C)c(=O)n(C)c2=O)CC1	-10	-1	-5	-2	0	3938	1.6
NC(=O)CSc1nnc(Cc2ccc3c(c2)OCO3)n1C1CCCCC1	-3	1	-14	10	5	8084	-0.2
O=C(CCC1CCCC1)NCCCNC(=O)CCC1CCCC1	2	3	-28	10	5	5546	2.1
CCN(CC)S(=O)(=O)c1cc(NC(=O)C2Cc3ccccc3C(=O)O2)ccc1C (stereo not drawn)	-3	-3	-16	-4	-3	4176	2.1
O=C(N/N=C/c1cn(-c2ccccc2)nc1-c1cccnc1)c1ccccc1	3	x	-23	x	x	2458	x
CCOC(=O)C1=C(C)N(CCCC(=O)O)C(=O)NC1c1ccccc1OS(=O)(=O)c1ccc([N+](=O)[O-])cc1 (stereo not drawn)	8	-1	-41	5	12	3576	4.3
Cc1cc(=O)oc(C)c1C(=O)N[C@@H](Cc1ccccc1)C(=O)O	-2	-4	2	3	-3	3212	-1.3
O=C(C1CC(=O)N(c2ccc3c(c2)OCCO3)C1)N1CCN(c2ccccc2)CC1 (stereo not drawn)	9	2	-43	-5	9	4200	1.5
CCCSc1nnc(N)s1	-13	2	-25	8	5	2593	5.3

Just BJeLR viability and PrP 5UTR inh, for 3 of the compounds above:
SMILES	BJeLR viability	PrP 5UTR inh
Cc1[nH]c(=O)c(C#N)c(C)c1Br	-5	-5
N#CCCN1CCN(Cn2c3ccccc3c3ccccc32)CC1	-6	-18
COc1cc(OC)c(C2N(c3ccc(Cl)c(Cl)c3)C(=O)C3CCCN32)cc1OC (stereo not drawn)	-14	-13

Returning to the listing, starting 3 compounds before the break.
SMILES	BJeLR viability	ugtP null kill	PrP 5UTR inh	Mtb hypoxia inh	Mtb hypoxia inh growth	Autofluor counter	Sa RN4220 lethal
Cc1cc(=O)oc(C)c1C(=O)N[C@@H](Cc1ccccc1)C(=O)O	-2	-4	2	3	-3	3212	-1.3
O=C(C1CC(=O)N(c2ccc3c(c2)OCCO3)C1)N1CCN(c2ccccc2)CC1 (stereo not drawn)	9	2	-43	-5	9	4200	1.5
CCCSc1nnc(N)s1	-13	2	-25	8	5	2593	5.3
COc1ccc(CNC(=O)CN(Cc2ccco2)C(=O)CNS(=O)(=O)c2ccc(F)cc2)cc1	6	8	-12	10	11	3702	3.8
Cc1noc(C)c1COc1cccc(C(=O)OC(C)C#N)c1 (stereo not drawn)	-7	5	-5	6	7	4339	4.4
CCOC(=O)Cn1cc(C#N)c2ccccc21	-10	3	-9	0	13	4297	6.9
CC(CNC(=O)c1cc(COc2c(F)cccc2F)on1)Oc1cccnc1 (stereo not drawn)	4	1	-3	-2	4	5283	4.8
CC(=O)c1ccc(NC(=S)NCCCN2CCOCC2)cc1	9	-5	-25	3	6	4371	4.5
COc1ccc(S(=O)(=O)N2CCOCC2)cc1N(C)S(=O)(=O)c1ccc(C)cc1	-2	4	-20	8	3	5185	0.3
CC(Cc1ccccc1)=NNC(=O)CCCC(=O)NN=C(C)Cc1ccccc1	x	5	x	0	5	x	0.0
COc1c(O)cc2oc(-c3ccc(O)c(O)c3)cc(=O)c2c1O	0	x	-44	x	x	4122	x
COC(=O)[C@@]1(Cc2ccccc2)[C@H]2C(=O)N(C)C(=O)[C@H]2[C@H]2CN(C)C(=NCc3ccccc3)N21	x	1	-26	0	3	3992	0.0
COc1ccc(Oc2ccc(N/C=C3\CCCC3=O)cc2)cc1	-1	-7	-27	10	4	11265	6.5
COCCNC(=O)NC(=O)COC(=O)Cc1ccc2c(c1)OCCO2	1	-1	-101	0	-2	22511*	1.9
Cc1ccc(-n2nc3c(=O)n(CC(=O)NCCc4ccco4)nc(C)c3c2C)cc1	-7	2	-4	-2	2	6483	1.0
COc1ccc(OC)c(S(=O)(=O)Nc2ccc3oc(C)c(C(C)=O)c3c2)c1	-9	6	-10	8	8	3660	4.3
COc1ccc(C(=O)NNc2ccccc2)cc1	3	6	-17	12	1	2273	2.4
NC(N)=N/N=C/c1ccc(OCc2ccccc2)c(OCc2ccccc2)c1	5	x	-4	x	x	4096	x
COC(=O)c1ccc(Cn2cnc3ccccc3c2=O)cc1	-9	3	-16	20	5	9994	2.5
CCCCN1CC(=O)N2C3c4cc(C)ccc4OCC3C(c3ccccc3)[C@]2(C)C1=O (stereo partly drawn)	x	-14	x	0	1	x	9.1
O=C(NC1CCCCC1)C12CC3CC(C1)CC(n1cncn1)(C3)C2	5	0	-19	x	x	2692	2.6
COc1ccccc1S(=O)(=O)c1ccccc1[N+](=O)[O-]	-16	x	-28	x	x	9257	x
CCCCN1C2=NC(c3ccccc3)CN2c2ccccc21 (stereo not drawn)	1	1	-17	-8	0	4655	3.6
O=c1[nH]cnc2scc(-c3ccc(Br)cc3)c12	-1	x	-35	x	x	3898	x
CC1CCN(C(=O)CN2C(=O)COc3ccc(Cl)cc32)CC1	-9	x	-9	x	x	3578	x
Cc1cccc(NC(=O)/C=C/c2cccs2)n1	4	10	-57	8	0	21452*	3.8
CC(C)c1ccc(CNC(=O)C(=O)NCCCn2ccnc2)cc1	4	7	-13	14	8	4348	12
CC(Cc1ccc(O)c(O)c1)C(C)Cc1ccc(O)c(O)c1 (stereo not drawn)	-10	10	x	1	2	x	52

Compounds shown so far that contain two or more sulfur atoms:
SMILES	BJeLR viability	ugtP null kill	PrP 5UTR inh	Mtb hypoxia inh	Mtb hypoxia inh growth	Autofluor counter	Sa RN4220 lethal
C=CCn1c(SCC(=O)Nc2nnc(CC)s2)nnc1-c1cccnc1	-4	-1	-7	5	-2	2390	5.4
CN(C)CCCN(C(=O)c1ccc(S(=O)(=O)N2CCc3ccccc3C2)cc1)c1nc2c(F)cccc2s1	3	-9	-3	7	14	5670	-8.0
Cc1ccc(C)c(S(=O)(=O)N2CCN(C(=O)C3CCN(c4ncnc5sc(C)c(C)c45)CC3)CC2)c1	3	4	-7	-10	-2	x	1.1
CCCSc1nnc(N)s1	-13	2	-25	8	5	2593	5.3
COc1ccc(S(=O)(=O)N2CCOCC2)cc1N(C)S(=O)(=O)c1ccc(C)cc1	-2	4	-20	8	3	5185	0.3

New compounds follow.
SMILES	BJeLR viability	ugtP null kill	PrP 5UTR inh	Mtb hypoxia inh	Mtb hypoxia inh growth	Autofluor counter	Sa RN4220 lethal
Cc1ccc(N(CC(=O)Nc2cccc(C)c2)S(=O)(=O)c2cccc3nonc23)cc1	14	-14	-11	-8	-1	4127	1.9
CC(C)C(=O)c1cn(CC(=O)NCc2ccc3c(c2)OCO3)c2ccccc12	2	-2	-7	x	x	4296	-2.4
COC(=O)c1ccc(OC)c(OC2CCCC2)c1	-4	7	-9	5	10	4136	4.1
COc1cc(C)ccc1OCCCOc1ccccc1Cl	-5	52	-151	x	x	2370	12
N#C/C(=C(/O)CSc1ccccn1)c1nc2ccccc2s1	17	50	-16	14	8	4457	64
CCC(C)(C(=O)NC1CCCC1)N(C(=O)c1cnccn1)c1ccccc1 (stereo not drawn)	-1	9	-15	4	3	5295	3.5
Nc1n[nH]c(CCCO)n1	-5	2	-8	7	1	2448	2.6
CC(C)(C)OC(=O)NCCCCCc1nnc(SCc2ccc(F)cc2)o1	13	x	-9	x	x	4780	x
COC(=O)CN1C(=S)N(Cc2ccccc2)C(=O)C1CC(=O)Nc1ccc(OC)cc1 (stereo not drawn)	14	7	-6	10	3	2097	3.8
CCc1nc(SCC(=O)N2c3ccccc3CC2C)c2c(C)c(C)sc2n1 (stereo not drawn)	28	21	-3	14	4	7026	-4.7
CN(C)CCNC(=O)Cn1nc(C(F)F)cc1C1CC1	18	4	-6	1	3	7750	4.5
CCC(CO)Oc1cc(NCc2ccccc2F)c2ncn(C(C)C)c2c1 (stereo not drawn)	x	-17	-45	12	8	3725	4.6
COc1ccc(C)cc1NC(=O)CCN1CCN(C/C=C/c2ccccc2)CC1	-4	5	-14	14	-3	4252	7.7
Oc1ccc2ccccc2c1CNc1ccccc1	x	-1	-13	8	2	3043	-0.8
Cc1cc(Cl)nc(Cl)c1C(=O)NCCc1ccccc1	x	4	-12	5	8	3692	3.4
CC(NC(=O)C1CCN(S(=O)(=O)N2CCC3(CC2)OCCO3)CC1)c1ccccc1 (stereo not drawn)	-3	5	-3	-10	-1	4133	-0.9
C[C@@H]1CN(Cc2cn(C)nc2-c2cccc(Cl)c2)C[C@H](C)O1	23	7	-29	12	3	4323	5.0
O=C(CCNC(=O)c1ccc(Cl)cc1)Nc1ccc(S(=O)(=O)N2CCOCC2)cc1	x	1	-10	5	4	2721	1.9

Assay outcomes from PubChem BioAssay.
